High-throughput results (PubChem BioAssay)
RE007 growth inh = less growth of the S. pombe RE007 Vpr strain | S. pombe RE007 Vpr strain, BacTiter-Glo ATP luminescence, 24 h; control for the full effect not named in the record | Potency, µM (doses to about 92.2 µM), for the others: at the highest dose activity change, negative = less growth | actives 0.21% (n = 360,000) | AID 651644; active = well fitted falling curve with a large enough effect; inconclusive = small, poorly fitted or top-dose-only effect; inactive = no such curve, though single readings can be large or run the other way;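 note: % is set by controls: 0 for no effect and ±100 for the full control effect; nearly all actives have a fitted effect of over 50% in size; the assay follows cell death caused by Vpr and the record does not say whether a fall means rescue or toxicity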
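Fission yeast strain RE007, carrying one chromosomally integrated HIV-1 vpr copy, was seeded at OD 0.01 in PMG+AL medium with 23 nL pinned compound. After 24 h at 30 °C and 99% humidity, viability was read by BacTiter-Glo luminescence.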
StopGo reporter = FMDV 2A StopGo reporter, luciferase signal; AID 1159524; actives 1.2% (n = 410,000); Potency, µM (top dose mostly 57.9 µM), for inactives: at the top dose signal change, negative = less light; human cells with a luciferase reporter of 2A StopGo recoding; control for the full effect not named in the record; active = well fitted falling curve with a large enough effect; inconclusive = small, poorly fitted or top-dose-only effect; inactive = no such curve, though single readings can be large or run the other way; tested in HEK293T cells; note: % is set by controls: 0 for no effect and ±100 for the full control effect; nearly all actives have a fitted effect of over 45% in size; luciferase light after 4 h
Cruzain inh Det = inhibitors of Trypanosoma cruzi cruzain with detergent. Potency, µM, for inactives: max response, negative = inhibition, usual class: inhibitors. purified cruzain, Z-FR-AMC fluorescence, 0.01% Triton. actives 0.43% (n = 200,000). P25779. AID 1478;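 note: plate controls were neutral wells for no effect and buffer without enzyme for full effect; nearly all actives have a fitted effect of over 40% in size; top concentration of the series not given in the record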
Target sequence (P25779 123-467 limits assumed): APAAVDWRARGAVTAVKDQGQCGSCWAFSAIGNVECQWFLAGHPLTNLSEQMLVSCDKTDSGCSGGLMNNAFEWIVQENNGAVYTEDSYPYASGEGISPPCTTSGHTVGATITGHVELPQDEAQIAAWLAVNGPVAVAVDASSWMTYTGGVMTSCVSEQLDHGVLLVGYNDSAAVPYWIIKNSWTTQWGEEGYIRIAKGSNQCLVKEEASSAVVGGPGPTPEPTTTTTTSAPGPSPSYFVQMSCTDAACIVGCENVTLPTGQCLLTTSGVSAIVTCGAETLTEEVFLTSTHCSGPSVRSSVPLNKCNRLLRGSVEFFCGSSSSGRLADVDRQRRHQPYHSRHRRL
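In this qHTS format, compounds are incubated with 1.5 nM cruzain for 15 min at room temperature before 2 uM Z-FR-AMC is added. Release of AMC is followed at 360/450 nm, and progress is taken as the 60 s fluorescence difference.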
LASV entry inh = inhibitors of Lassa virus binding or cell entry. Lassa virus pseudotype entry inhibition, cell reporter; control for the full effect not named in the record. Potency, µM (titrated, usually from 37.9 µM), for inactives: at the top dose activity change, negative = inhibition, most hits filed as inhibitors. actives 1.2% (n = 300,000). AID 540256; active means well fitted inhibition curve with a large enough effect; inconclusive means small, poorly fitted or top-dose-only effect, or effect the other way; inactive means flat fitted curve, though single readings scatter; tested in HEK293 cells; note: % is set by controls: 0 for no effect and ±100 for the full control effect; nearly all actives have a fitted effect of over 50% in size; luciferase read-out
SARS PLpro yeast = SARS-CoV PLP inhibition in yeast | actives 0.19% (n = 330,000) | Potency, µM (series often up to 32.9 µM), inactives show top-dose activity, positive = growth rescue | AID 485353 | S. cerevisiae expressing SARS-CoV PLpro, growth rescue; control for the full effect not named in the record; active means well fitted rising curve with a large enough effect; inconclusive means small, poorly fitted or top-dose-only effect; inactive means no such curve, though single readings can be large or run the other way; note: 0% is about no effect; nearly all actives have a fitted effect of over 55% in size; growth read by luminescence after 48 h
Cruzain noTriton = blocks cruzain activity in detergent-free assay; P25779; purified cruzain, Z-FR-AMC fluorescence, no detergent; Potency, µM, inactives show max response, negative = inhibition, most hits filed as inhibitors; actives 2.3% (n = 200,000); AID 1476;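 note: plate controls were enzyme without inhibitor for no effect and buffer without enzyme for full effect; nearly all actives have a fitted effect of over 40% in size; top concentration of the series not given in the record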
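Purified cruzain at 1.5 nM, pre-incubated 15 min with compound at room temperature in 100 mM sodium acetate pH 5.5, 5 mM DTT, 0.00005% Triton X-100. Reaction started with 2 uM Z-FR-AMC; AMC fluorescence increase over 60 s gives rate.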
NS1 function inh = influenza NS1 inhibition | S. cerevisiae slowed by influenza A NS1, growth recovery by OD600 | Potency, µM (highest dose often 46.1 µM), for inactives: at the top dose activity, positive = more growth | actives 0.4% (n = 270,000) | AID 2326; active means well fitted rising curve with a large enough effect; inconclusive means small, poorly fitted or top-dose-only effect; inactive means no such curve, though single readings can be large or run the other way; note: nearly all actives have a fitted effect of over 50% in size
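Recovery from NS1-induced slow growth read by OD600 in budding yeast switched to galactose assay medium (pH 6.0, -URA) at 1:100 dilution. Compound 23 nl per well; the matching strain lacking NS1 serves as control.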
Marburg entry inh = Marburg virus entry inhibition. Marburg virus pseudotyped entry inhibition, cell reporter; control for the full effect not named in the record; about a third of the inactives were read at about 46 µM. Potency, µM (titrated, usually from 37.8 µM), inactives show at the highest dose activity change, negative = inhibition, actives largely listed as inhibitors. actives 1.8% (n = 300,000); active = well fitted inhibition curve with a large enough effect; inconclusive = small, poorly fitted or top-dose-only effect, or effect the other way; inactive = flat fitted curve, though single readings scatter; tested in HEK293 cells; about a fifth of its hits are not listed in these tables; note: % is set by controls: 0 for no effect and ±100 for the full control effect; luciferase read-out
Active calls of the source: *; ? = inconclusive; . = not tested or not shown; & = joins results of further samples; [ ] = another dose, or the depositor's remark. Unless noted, calls come from the whole dose curve; as a rule, active = well fitted curve in the direction sought with a large enough effect; inconclusive = small, poorly fitted or top-dose-only effect, or another doubt; inactive = no such curve, though single readings can be large; an effect the other way counts as inactive or inconclusive. Potency is the fitted concentration of half-maximal effect. Compounds were not picked by outcome; overall some 4.8% were active at least once.

Fields – RE007 growth inh | StopGo reporter | Cruzain inh Det | LASV entry inh | SARS PLpro yeast | Cruzain noTriton | NS1 function inh | Marburg entry inh
O=C(CCC1N=C2c3ccccc3N=C(SCC(=O)Nc3ccccc3F)N2C1=O)NCc1cccs1 (stereo not given)
    . | 0% | -3.0% | -16%[46.1 µM] | . | 4% | . | 1%[46.1 µM]
O=C(Nc1nnc(C2=COCCO2)o1)c1cccc([N+](=O)[O-])c1
    17% | -16% | . | 15% | -6% | . | -8% | 6%
Oc1ccc(N2CCN(c3nnnn3-c3ccccc3)CC2)cc1
    1% | -20% | . | ? | 0% | . | . | 4%[14.2 µM]
Cc1cc(C(=O)Nc2ccc(Cl)cc2)on1
    0% | 0% | . | 10%[46.1 µM] | -1% | . | 0% | 0%[46.1 µM]
Cc1cccc(-c2c3c(=O)n(C)c(=O)n(C)c3cn2CC2CCCO2)c1 (stereo not given)
    2% | -8% | -0.6% | 4% | 1% | 2% | -6% | -16%
O=C(O)CNS(=O)(=O)c1ccc2[nH]c(=O)c(=O)[nH]c2c1
    1% | -9% | . | 2% | 0% | . | -1% | 12%
CNC(=O)C1CC(=O)N(c2ccc(OCC(=O)NCc3ccccc3)cc2)C1 (stereo not given)
    -10% | 15% | . | -8% | 1% | . | 29% | 14%[46.1 µM]
O=C1NN(c2ccccc2)C(=O)/C1=C\c1coc2ccc(O)cc2c1=O
    6% | ? | . | . | -2% | . | 10% | .
O=C(OCC1CC(c2ccccn2)=NO1)c1ccc(Br)cc1 (stereo not given)
    -12% | . | -4.7% | ? | 3% | -6% | -92% | -1%
N#C/C(=N\Nc1ccc([N+](=O)[O-])cc1)C(=N)N1CCOCC1
    -8% | 63%[activator] | . | 12% | -1% | . | -6% | 1%
COc1ccc(CNc2nc(-c3ccco3)nn2C(=O)CC(C)C)cc1
    . | 11% | -12% | ? | . | 18% | . | ?
O=C(CNC(=O)c1ccccc1F)NCCCN1CCCC1=O
    3% | 10% | . | -15%[46.1 µM] | . | . | . | ?
Cc1c(C(=O)Nc2ccccc2)c2ccc(C(F)(F)F)cc2n1O
    -8% | ? | . | -10% | . | . | . | ?
CCOC(=O)C1(C)NC(c2ccc(N(C)C)cc2)C2C(=O)N(c3ccc(OC)cc3)C(=O)C21 (stereo not given)
    1% | -24% | 6.3% | -10% | 4% | 14% | -3% | -3%
Cc1onc(-c2c(F)cccc2Cl)c1C(=O)Nc1sc2c(c1C#N)CCC(C(C)(C)C)C2 (stereo not given)
    20% | -22% | -4.3% | -25% | -10% | 10µM* | 4% | ?
O=C1CC(c2cc(Br)ccc2F)c2cc3c(cc2N1)CCC3 (stereo not given)
    9% | -14% | 1.4% | ? | 18% | -14% | -119% | ?
CCOC(=O)Cn1c(-c2ccccn2)nc2ccccc21
    -16% | 4% | 0.4% | 0% | -5% | 5% | -2% | 9%
Fc1ccc(-c2csc(-c3ccc(C4SCCS4)cc3)n2)cc1F
    -12% | 75%[activator] | . | . | 0% | . | 2% | .
COc1ccc2cc(C(N)=O)c(=Nc3ccc(C)cc3)oc2c1
    9% | 10% | . | ? | 4% | . | . | ?
COc1ccc(-c2csc(NC(=O)c3cc(C)on3)c2C#N)cc1OC
    -18% | 0% | 0.2% | 33%[14.3 µM] | 1% | 14% | -6% | -3%
O=C(Nc1ccccc1)NC1(C(=O)N2CCN(C(=O)c3ccco3)CC2)CCCCC1
    -12% | -12% | 5.8% | 0% | -1% | 4% | -3% | -1%
O=C(c1cc(-c2ccccc2)on1)N1CCN(c2ccccc2)CC1
    -2% | -1% | . | 8%[46.1 µM] | . | . | 1% | 12%[46.1 µM]
CC(C)C(=O)Nc1cc(S(=O)(=O)N2CCOCC2)ccc1N1CCCCC1
    5% | -7% | . | 3%[46.1 µM] | -1% | . | . | -25%[46.1 µM]
O=C(O)c1ccc(NC(=O)c2cc(S(=O)(=O)N3CCCCC3)c(Cl)cc2Cl)cc1
    . | 0% | -4.9% | 13%[46.1 µM] | . | 1% | . | .
OCc1ccccc1N=Cc1cccnc1
    3% | 7% | . | 3% | 1% | . | 6% | ?
O=C1NC(=Nc2ccccc2)/C(=C/c2ccco2)S1
    -3% | 4% | -6.6% | -1% | -8% | -9% | 4% | -16%
Cc1cc(C)cc(NC(=O)Cn2cc(C(=O)c3ccncc3)c(=O)c3cc(C)c(C)cc32)c1
    . | -15% | -5.3% | ? | . | 4% | . | .
Cc1ccc(S(=O)(=O)C2(C(=O)Nc3nccs3)CC2)cc1
    13% | -22% | -3.8% | . | 1% | -13% | 10% | .
COc1cccc(Nc2nc(-c3ccccc3)c3cc(C)ccc3n2)c1
    . | -20% | -2.9% | 17%[46.1 µM] | . | ? | . | .
CCNC(=S)N1CCN(CCN=CC2=C(O)CC(C)(C)CC2=O)CC1
    21% | -17% | . | . | 1% | . | 0% | .
CCOC(=O)C1CCCN(S(=O)(=O)c2cc(Br)cc3c2N(C(C)=O)CC3)C1 (stereo not given)
    7% | 7%&-1% | -2.6% | ? | -2% | ? | -28% | -16%&7%[46.1 µM]
CN1CCN(C(=O)/C(=C/c2cn(C)c3ccccc23)NC(=O)c2ccccc2)CC1
    0% | -9% | . | . | 2% | . | 4% | .
CCn1cc(C(=O)N2CCCC(CO)(Cc3ccccc3C)C2)cn1 (stereo not given)
    6% | 13% | . | 3%[46.1 µM] | 16% | . | 3% | 9%[46.1 µM]
COc1ccc(-c2cc3ccc(OCC(C)=O)cc3oc2=O)cc1
    -18% | 36%[activator] | . | . | -8% | . | -19% | .
O=S(=O)(c1ccc(Cl)nc1)N1CCN(Cc2ccc3c(c2)OCO3)CC1
    -10% | -15% | 0.9% | 1% | -2% | 0% | -4% | 18%
CCOC(=O)c1sc(N)c(C#N)c1CSc1nnc(C2CC2)n1N
    -14% | -23% | 5.8% | 5% | 1% | 1% | 5% | 7%
O=C(ON=C1CCN(S(=O)(=O)c2ccccc2)CC1)c1cccc(Cl)c1
    10% | 8% | -8.5% | 17% | -56% | -3% | -18% | -6%
Cc1cc(=O)oc2cc(OCC(=O)N3CCN(c4ccc(F)cc4)CC3)c(Cl)cc12
    -3% | 7% | . | 8%[46.1 µM] | 14% | . | 13% | -18%[46.1 µM]
CCOC(=O)N1CCc2c(sc3c2c(=O)n(Cc2ccccc2)c(=O)n3Cc2cccc(Cl)c2)C1
    . | -21% | -3.0% | -19%[46.1 µM] | . | 7.9µM* | . | 1%[46.1 µM]
O=C(CCC1CCCC1)Nc1ccc(OCC(=O)N2CCOCC2)cc1
    9% | 24% | -2.3% | ? | 2% | 9% | 2% | ?
CN(C)C(=O)Oc1ccc(NC(=O)N2CCOCC2)cc1
    0% | 1% | . | . | -9% | . | 5% | .
O=[N+]([O-])c1ccccc1/C=N/N1CCN(Cc2ccccc2)CC1
    -15% | 47%[activator] | . | -5% | 8% | . | -22% | 9%
Fc1cccc(/C=N/Nc2ccc3ccccc3n2)c1
    -19% | -58% | . | ? | 2% | . | . | 6.3µM*
O=C(N/N=C/c1ccc(OCc2ccccc2)cc1)c1cccs1
    -8% | 49%[activator] | 1.2% | 4% | 8% | ? | -11% | -15%
N#CC1=C(N)Oc2n[nH]c(-c3cccs3)c2C1c1ccccc1C(=O)O (stereo not given)
    -17% | 6% | . | . | -7% | . | . | 0%[46.1 µM]
CC(C)Cn1c(-c2ccc(F)cc2)n[nH]c1=S
    -8% | -21% | 0.7% | 3% | -7% | -6% | 7% | 3%
CCOc1ccc(S(=O)(=O)N(CC(=O)Nc2cccnc2)c2ccccc2)cc1
    . | -23% | -5.2% | ? | . | 9% | . | ?
O=S(=O)(NCC1CCCO1)c1ccc(Oc2ccccc2)cc1 (stereo not given)
    0% | 35%[activator] | 2.1% | -16% | 0% | 6% | -39% | 6%
CCOC(=O)c1cccc(NC(=O)CCc2nc3cccnc3n2-c2ccccc2)c1
    . | -2% | 5.2% | ? | . | 1% | . | -12%[46.1 µM]
O=C(/C=C/NCC(=O)c1ccccc1)c1ccc(Br)cc1
    -7% | 55%[activator] | -8.3% | 12% | -2% | ? | 4% | 2%
CN(C)N=Nc1ccc(-c2cn(Cc3ccccc3)cn2)cc1
    1% | 19% | . | -17%[46.1 µM] | -8% | . | -1% | ?
C/C(=N\NC(=O)CN(c1ccc(C)cc1)S(C)(=O)=O)c1cccs1
    5% | -9% | -4.9% | 4% | -5% | 1% | 4% | ?
COc1ccccc1NC(=O)c1c(NC(=O)c2ccccc2F)sc2c1CCC2
    . | 0% | -0.4% | 14%[46.1 µM] | . | 5% | . | .
O=C(CCc1nc2ccccc2c(=O)[nH]1)N1CCN(c2ccc(F)cc2)CC1
    -6% | ? | . | ? | 0% | . | -5% | -16%[46.1 µM]
CCCc1nnc(NC(=O)CCC(=O)NCc2ccc(OC)cc2)s1
    -3% | -3% | . | 3%[46.1 µM] | 0% | . | 3% | 37%[46.1 µM]
Cc1nc2ccc(C(=O)OCc3ccccc3Br)cc2nc1C
    -9% | . | -2.5% | ? | 53% | ? | -3% | 7%
COc1ccc(Br)cc1CN1CCCC(C(=O)N2CCCCCC2)C1 (stereo not given)
    -8% | ? | -4.0% | ? | ? | -12% | -5% | ?
COc1c(Br)cc2c(C)c(C(=O)O)oc2c1Br
    -1% | 5% | -3.2% | 0% | -23% | -4% | -66% | 29%
O=C(NCc1ccc(F)cc1)C1CCN(S(=O)(=O)c2cccnc2)CC1
    6% | -1% | . | . | -2% | . | -3% | .
CCCOc1ccccc1-c1nc(SCC(=O)c2ccccc2)n[nH]1
    . | 18% | -5.8% | 0%[46.1 µM] | . | -17% | . | 1%[46.1 µM]
Cc1nn2c(CN(C(=O)COc3ccccc3)c3ccccc3)nnc2c2ccccc12
    -21% | -9% | 0.5% | 4% | -5% | ? | -19% | -5%
Cc1ccc2c(c1)N(CCC(=O)N1CCC3(CC1)OCCO3)C(=O)C(C)O2 (stereo not given)
    1% | -9% | 0.1% | 6% | 1% | 6% | -10% | -3%
